Bead autofluor: flagged as autofluorescent in microsphere protease counterscreen; compound autofluorescence counterscreen, microsphere flow cytometry; hits give high values; fluorescence intensity (concentration not given with the values); actives 3.1% (n = 360,000);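 active = at least 3 SD above the mean of all compounds, about 16000 in these data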;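 note: 100 nL of 1 mM stock went into each well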
The depositor's hits bear a star. An excerpt; rates above refer to the full screens.

Molecule	Bead autofluor
O=[N+]([O-])c1ccc(CN2CC(N3CC=CC3)CS2(=O)=O)cc1 (configuration not stated)	6551
COC(=O)c1ccc2nc(-c3ccc(F)cc3)c(Cc3ccc(C)cc3)n2c1	7465
C[C@@H](NC(=O)[C@@H]1CCCN1C(=O)[C@@H]1CCCN1C(=O)c1cccc(Cl)c1)c1ccccc1	4278
Cc1cc(NC(=O)c2ccc3sc([C@@H]4O[C@H](CO)[C@H](O)[C@H](O)[C@H]4O)nc3c2)n(C)n1	3847
Fc1ccc(-c2nc3ccc(Cl)cn3c2Cc2cccc(F)c2)cc1	9095
COCCc1ccc(OC2(C)CCN(Cc3cccn3-c3nccs3)C2)cc1 (configuration not stated)	3343
COc1ccccc1-c1cnc(C(O)c2ccc(C)cc2C)[nH]1 (configuration not stated)	3663
CCC(=O)N1CCC1(C)C(=O)Nc1cc(-c2ccccc2)nn1C (configuration not stated)	3459
CCOC1=C2CN(S(=O)(=O)c3ccc(C)cc3)[C@H](c3ccccc3)C[C@H]2[C@H]2C(=O)N(c3ccccc3)C(=O)[C@H]2C1	5385
CN(C)CCCn1c2c(c(SCC(=O)Nc3ccc4c(c3)OCCO4)nc1=O)CCCC2	3743
O=C1NC[C@H](CCCCN2C[C@H](Cc3ccccc3)N(CC3CCCCC3)C(=O)C2=O)N(CCC2CCCCC2)C1=O	5464
O=C(NCc1ccc(F)cc1)c1cc(C2CCCCN2C(=O)CCCc2ccccc2)on1 (configuration not stated)	3955

Molecule	Bead autofluor
CCCc1cc(C(=O)OCC(=O)NCCc2ccccc2)sc1C	3074
O=C1NC[C@H](CCCCN2CCN(CCC3CCCCC3)C(=O)C2=O)N(CCC2CCCCC2)C1=O	4207
C[C@@H]1CN([C@@H](C)CO)C(=O)c2cc(N(C)C)ccc2O[C@@H](C)CCCCO[C@@H]1CN(C)Cc1ccc2c(c1)OCO2	3682
CC(=O)Nc1cccc(-c2csc(C(C)(O)c3cccc(F)c3)n2)c1 (configuration not stated)	2869
CCC(=O)N1CCC1(C)C(=O)Nc1ccc2c(c1)CCN2C(C)=O (configuration not stated)	3871
COc1ccc(NC(=O)COC(=O)c2ccc(S(=O)(=O)N3CCCCC3)cc2)c(OC)c1	2623
O=C1NC[C@H](CCCCN2C[C@H](Cc3ccc(O)cc3)N(CCc3ccc(O)cc3)C(=O)C2=O)N(CC2CCCCC2)C1=O	5744
O=C(NCc1cccnc1)C1C2C=CC(C2)C1C(=O)Nc1cccc(C(F)(F)F)c1 (configuration not stated)	3967
COc1ccc(CC(N)c2csc(Nc3ccc(C(C)=O)cc3)n2)cc1 (configuration not stated)	3946
Cc1nc(N2CCN(S(=O)(=O)c3cccs3)CC2)c2c(-c3ccccc3)c(C)sc2n1	3688
CCCCn1nnnc1C(c1cccc(OC)c1OC)N1CCN(C/C=C/c2ccccc2)CC1 (configuration not stated)	5963
CCN(CC)c1ccc(C(=O)NNC(=O)C2CCN(c3ncnc4sc(C)c(C)c34)CC2)cc1	3093

Molecule	Bead autofluor
Cc1ccc(S(=O)(=O)NC[C@H]2O[C@@H](n3ccc(N)nc3=O)[C@H](O)[C@@H]2O)s1	2940
CCC(c1nnnn1-c1c(C)cccc1C)N1CCN(c2ccc(C(F)(F)F)cc2[N+](=O)[O-])CC1 (configuration not stated)	4596
O=C(COC(=O)c1cc(=O)c2ccccc2o1)NCc1ccc(Cl)cc1	3058
COc1ccccc1-c1noc(CCC(=O)Nc2cccnc2)n1	4354
CCOC(=O)C1(C)CCCN1C(=O)c1ccc(C(=O)OC)cc1 (configuration not stated)	3986
CCc1nnc(NC(=O)c2ccc3c(=O)n4c(nc3c2)CCC4)s1	4021
COc1ccc(CNC(=O)O[C@H]2Cn3c(=O)ccc(=O)n3[C@@H]3CN(S(=O)(=O)c4ccc(C)cc4)C[C@]23O)cc1OC	4095
COc1cccc(/C=C/C(=O)OCC(=O)NC2CCCC2)c1	2856
CC(C)CNC(=O)C1(C)CCCN1C(=O)c1c(Cl)cccc1Cl (configuration not stated)	3616
COc1ccc(NC(=O)N(C)C[C@H]2OCCCC[C@H](C)Oc3ccc(NC(=O)Nc4ccc5c(c4)OCO5)cc3C(=O)N([C@@H](C)CO)C[C@@H]2C)cc1	3552
Cc1ccc(S(=O)(=O)N2C[C@H]3n4c(=O)ccc(=O)n4C[C@H](OC(=O)NCC4CCCCC4)[C@@]3(O)C2)cc1	3872
Cc1ccc(C)c(N2CCN(C(c3ccccc3)c3nnnn3C(C)(C)C)CC2)c1 (configuration not stated)	4435

Molecule	Bead autofluor
COC(=O)C1=C(c2cccc(OCc3ccccc3)c2)C[C@@H]2CC[C@H]1N2C	3015
COCCCNC(=O)c1csc([C@@H]2C[C@H](O)[C@@H](CO)O2)n1	3657
CCOC(=O)c1c(C)oc(=O)c(CC)c1O	3002
COc1ccc(F)cc1-c1cc(C(=O)NCc2cccc(C(F)(F)F)c2)[nH]n1	3800
CC1CCCCC1=NNC(=O)c1ccccc1 (configuration not stated)	3447
COc1ccc(NC(=O)C2(C)Cc3c(-c4cccc(NC(C)=O)c4)ccnc3O2)cc1 (configuration not stated)	3563
C=CCn1c(SCC(=O)Nc2cc(C)on2)nc2ccccc21	3374
COc1ccc([C@H]2C[C@H](n3cc(COC(=O)c4ccccc4)nn3)[C@@H](O)CN2Cc2cccs2)cc1	3417
COc1ccc(C(C)C)cc1-c1cc(C(=O)NCc2cc(C(F)(F)F)cc(C(F)(F)F)c2)[nH]n1	3395
N#Cc1ccccc1COC(=O)c1cc(S(=O)(=O)N2CCOCC2)ccc1F	4199
CN(C)CCCN1c2ccc(O)cc2Sc2ccc(Cl)cc21	3768
CCOc1ccc(Nc2ccc(S(=O)(=O)N3CCOCC3)cc2[N+](=O)[O-])cc1	2827

Molecule	Bead autofluor
CC1(c2cccc(Br)c2)NC(=O)N(CC(=O)NCCC2=CCCCC2)C1=O (configuration not stated)	2983
CCCNC(=O)C1(C)CCN(Cc2ccc(Oc3ccccc3)cc2)C1 (configuration not stated)	4143
Cc1cc(C)c(Cn2c(=O)[nH][nH]c2=O)cc1Cn1c(=O)[nH][nH]c1=O	3778
Cc1ccc(S(=O)(=O)N2CCOCC2)cc1NC(=O)COC(=O)C1CCC1	4032
O=C(NCCc1ccccc1)Nc1nnc([C@@H]2C[C@H](O)[C@@H](CO)O2)s1	3515
CC(NC(=O)C1CCN(CCOc2ccc(Cl)cc2)CC1)c1cccc2ccccc12 (configuration not stated)	3578
COc1ccc(C(=O)Nc2ccc3nc4n(c(=O)c3c2)CCCCC4)cc1OC	3526
Cc1cccnc1C(NC(=O)C1CCN(CCCOc2ccccc2)CC1)c1ccc(F)cc1 (configuration not stated)	3577
c1cc(-c2ccc3c(c2)CCO3)n2cnnc2c1	3026
CN(C)c1ccc(/C=C/CNC[C@H]2O[C@@H](n3ccc(N)nc3=O)[C@H](O)[C@@H]2O)cc1	3616
C[C@H](CO)N1C[C@H](C)[C@@H](CN(C)C(=O)c2cnccn2)Oc2ncc(Br)cc2C1=O	2944
Cc1ccc(C=NNC(=O)C(=O)Nc2ccc(Cl)c([N+](=O)[O-])c2)cc1	5530

Molecule	Bead autofluor
O=C1NCN(c2ccccc2)C12CCN(C(c1cc3ccccc3o1)c1nnnn1C1CCCC1)CC2 (configuration not stated)	5953
COc1ccccc1CNc1nc2cc(-c3sccc3C)sc2c(=O)n1C	4033
O=C1OC2C(O)COC23OC(O)CCC13O (configuration not stated)	5152
CC(C)C[C@H]1CN([C@@H](Cc2ccccc2)CN2CCC[C@H]2CN2C(=O)C(=O)NC[C@@H]2Cc2ccc(O)cc2)C(=O)C(=O)N1CC1CCCCC1	4225
CC1(C(=O)NS(=O)(=O)c2ccc(Cl)cc2)CCN1C(=O)Cc1ccsc1 (configuration not stated)	3801
O=C(CO)c1c[nH]c2ccccc12	5398
CCCCNC(=O)C1(C)CCC(=O)N1CCOC (configuration not stated)	4253
Clc1cccc(Cc2c(-c3cccc(Br)c3)nc3ccc(Br)cn23)c1	11639
Cc1cccc(CN(C)C[C@H]2OCc3cnnn3CCCC(=O)N([C@H](C)CO)C[C@@H]2C)c1	3870
CCN1C(=O)[C@@H]2[C@@H]3CN(S(=O)(=O)c4ccc(C)cc4)[C@@H](c4ccccc4F)[C@@H]3C(=O)C[C@@H]2C1=O	5663
CC1(C)CC(=Cc2cc(O)ccc2[N+](=O)[O-])C(=O)c2ccccc21	3924
Cc1cccnc1C(NC(=O)C1CCN(Cc2ccc(Cl)c(Cl)c2)CC1)c1ccc(Cl)cc1 (configuration not stated)	3479

Four records picked at random from the list so far, as already listed:
Molecule	Bead autofluor
COc1ccccc1-c1noc(CCC(=O)Nc2cccnc2)n1	4354
N#Cc1ccccc1COC(=O)c1cc(S(=O)(=O)N2CCOCC2)ccc1F	4199
Clc1cccc(Cc2c(-c3cccc(Br)c3)nc3ccc(Br)cn23)c1	11639
CC(=O)Nc1cccc(-c2csc(C(C)(O)c3cccc(F)c3)n2)c1 (configuration not stated)	2869

Other records.
Molecule	Bead autofluor
CCc1nc2ccc(C(=O)Nc3ccc(C(N)=O)cc3)cn2c1N(C)CCC(C)C	3021
COc1ccccc1Cc1c(C2CCCCC2)nc2cc(C)c(Br)c(C)n12	5517
CCCC(=O)N1CCC1(C)C(=O)NCc1ccc(C(C)C)cc1 (configuration not stated)	3875
COc1ccc(Cc2c(C3CCCCC3)nc3cc(C)c(Br)c(C)n23)c(C)c1	6451
O=C(NCc1ccccc1Cl)c1ccc2sc([C@@H]3O[C@H](CO)[C@H](O)[C@H](O)[C@H]3O)nc2c1	4349
CC(C)(C)NC(=O)C1(C)CCC(=O)N1C1CCN(Cc2ccccc2)CC1 (configuration not stated)	5960
CSc1ccccc1NC(=O)C1(C)CCN1C(=O)Cc1ccccc1Cl (configuration not stated)	3675
Cc1ccccc1CC(=O)Nc1ccc2c(c1)c(=O)n(C)n2-c1ccccc1F	3425
COc1ccc(-c2cc(NC=O)c3ncc(-c4cccc(C(=O)NCCN(C)C)c4)n3c2)c(OC)c1	4040
O=C(Nc1nnc(-c2ccco2)o1)c1ccc(Br)s1	3484
CCOC(=O)C1=C[C@@H](C2CCCC2)N(S(=O)(=O)c2ccc([N+](=O)[O-])cc2)[C@H]1c1ccccc1	5941
CCOC(=O)C1CCCN(C(=O)Cc2ccc(OC)c(OC)c2)CC1 (configuration not stated)	2857

Molecule	Bead autofluor
COc1ccc(CCN2C(=O)c3ccccc3C2c2nnnn2C(C)C)cc1OC (configuration not stated)	6266
Cc1cc(C)n(CCNC(=O)[C@H]2O[C@@H](n3ccc(=O)[nH]c3=O)[C@H](O)[C@@H]2O)n1	4301
CSc1ccc(OC2(C)CCN(Cc3ccccc3)C2)cc1 (configuration not stated)	2928
C[C@@H]1CN([C@@H](C)CO)C(=O)CCCn2nncc2CO[C@@H]1CN(C)S(=O)(=O)c1ccc2ccccc2c1	3813
COc1cccc(-c2ccc(CN3C(C)C(=O)N(Cc4cn(Cc5ccco5)nn4)CCS3(=O)=O)cc2)c1OC (configuration not stated)	5567
O=C(Nc1ccn(CCCN2CCN(Cc3ccc(F)cc3)CC2)c(=O)n1)OCc1ccccc1	3570
CCCCC1CC2=C(C(=O)OC(C)(C)O2)C(c2ccc(Cl)cc2)O1 (configuration not stated)	5857
CCN(CC)C(=O)C1=C(C)N(CCCN2CCCC2=O)C(=O)C(CC(=O)NC(c2ccccc2)c2ccccc2)C1 (configuration not stated)	3458
Cc1cccnc1C1=NOC(Cc2ccccc2)C(=O)N1CCOc1ccc(F)cc1 (configuration not stated)	5677
C[C@H]1CCCCO[C@H](CN(C)Cc2ccncc2)[C@@H](C)CN([C@@H](C)CO)C(=O)c2cc(NS(=O)(=O)c3ccccc3)ccc2O1	3519
CCCCNC(=O)C1(C)CCC(=O)N1C1CC1 (configuration not stated)	5743
CN1CCCCC1(C)C(=O)NCc1cc(Cl)ccc1F (configuration not stated)	3897

Three structures already listed, sorted by count of non-hydrogen atoms, high to low:
Molecule	Bead autofluor
CN(C)CCCn1c2c(c(SCC(=O)Nc3ccc4c(c3)OCCO4)nc1=O)CCCC2	3743
Cc1cccnc1C1=NOC(Cc2ccccc2)C(=O)N1CCOc1ccc(F)cc1 (configuration not stated)	5677
O=C(CO)c1c[nH]c2ccccc12	5398

Remaining list, next part
Molecule	Bead autofluor
COc1ccc(-c2cc(N3CCN(CCO)CC3)n3nccc3n2)cc1	3736
CCCn1c(=S)[nH]c2cc(C(=O)N3CCN(c4ccccc4)CC3)ccc2c1=O	3476
CC1(C(=O)NCc2cccc(C(F)(F)F)c2)CCN1C1Cc2ccccc2C1 (configuration not stated)	3959
COCCN(Cc1ccc(C)cc1)C(=O)[C@H]1O[C@@H](n2ccc(=O)[nH]c2=O)[C@H](O)[C@@H]1O	5351
CC(CC(=O)Nc1ccc2c(c1)c(=O)n(C)n2Cc1ccc(F)cc1)C(F)(F)F (configuration not stated)	3521
COC(=O)[C@@]1(Cc2ccc(OC)cc2)[C@H]2c3cc(C(=O)N4CCCC4)n(CCc4ccc(OC)c(Br)c4)c3C[C@H]2CN1C(=O)c1ccccc1	5788
Nc1ncnc2c1ncn2[C@@H]1O[C@H](C(=O)N2CCC(F)(F)CC2)[C@@H](O)[C@H]1O	5909
O=C(c1cccs1)N1C[C@H](n2cc(C3CC3)nn2)[C@@H](O)C[C@@H]1c1ccccc1	3448
NC(=O)c1cccc(-c2ccnc3c2CC(C(=O)NCc2ccccc2)O3)c1 (configuration not stated)	4495
COc1ccc(C)cc1S(=O)(=O)NCc1ccccn1	3650
CCN(CC)C(=O)c1cccc(-c2csc(C(O)c3ccc(OC)cc3)n2)c1 (configuration not stated)	3532
